Compound activity: PubChem BioAssay, National Center for Advancing Translational Sciences (NCATS)
NPR1 antag = antagonists of human natriuretic peptide receptor Npr1 | P16066 | AID 1347048 | Potency, µM (highest dose often 46.3 µM), without a hit: at the highest dose activity change, negative = inhibition, usual class: inhibitors | 76,000 tested, 1.6% active | HEK293 hNpr1 GloSensor cGMP, ANP-stimulated luminescence; active = well fitted inhibition curve with a large enough effect; inconclusive = small, poorly fitted or top-dose-only effect; inactive = no such curve, though single readings can be large or run the other way;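 note: nearly all actives have a fitted effect of over 60% in size; nearly all hits also lower the signal before the agonist is added; a reference antagonist and vehicle were the controls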
Target sequence (P16066 whole entry, looked up): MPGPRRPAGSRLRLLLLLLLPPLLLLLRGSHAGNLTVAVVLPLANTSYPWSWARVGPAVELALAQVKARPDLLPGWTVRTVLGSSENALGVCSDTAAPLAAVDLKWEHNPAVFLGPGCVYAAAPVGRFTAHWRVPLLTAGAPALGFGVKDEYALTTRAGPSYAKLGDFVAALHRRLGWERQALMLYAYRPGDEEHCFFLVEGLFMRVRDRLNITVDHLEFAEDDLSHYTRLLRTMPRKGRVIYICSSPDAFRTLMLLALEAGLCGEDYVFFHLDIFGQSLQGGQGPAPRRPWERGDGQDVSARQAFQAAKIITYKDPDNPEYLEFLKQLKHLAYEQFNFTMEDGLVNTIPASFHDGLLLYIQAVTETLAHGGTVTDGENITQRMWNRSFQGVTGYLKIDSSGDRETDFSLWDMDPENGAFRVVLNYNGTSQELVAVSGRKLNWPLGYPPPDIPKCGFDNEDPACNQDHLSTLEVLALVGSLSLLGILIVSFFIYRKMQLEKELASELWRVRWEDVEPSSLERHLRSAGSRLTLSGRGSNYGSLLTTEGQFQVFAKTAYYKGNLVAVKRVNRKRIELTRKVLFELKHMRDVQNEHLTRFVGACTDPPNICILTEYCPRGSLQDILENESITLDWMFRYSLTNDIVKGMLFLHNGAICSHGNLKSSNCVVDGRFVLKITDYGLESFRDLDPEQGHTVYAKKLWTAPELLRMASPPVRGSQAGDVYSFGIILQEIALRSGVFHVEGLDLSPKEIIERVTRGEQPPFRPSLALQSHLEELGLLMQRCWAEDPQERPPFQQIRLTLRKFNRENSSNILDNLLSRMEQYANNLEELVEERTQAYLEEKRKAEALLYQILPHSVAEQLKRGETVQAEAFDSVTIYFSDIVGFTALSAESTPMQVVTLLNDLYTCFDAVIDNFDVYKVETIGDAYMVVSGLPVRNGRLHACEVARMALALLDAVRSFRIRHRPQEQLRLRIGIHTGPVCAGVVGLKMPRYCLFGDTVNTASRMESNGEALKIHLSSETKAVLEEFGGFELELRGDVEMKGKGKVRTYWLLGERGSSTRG
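HEK293 cells stably expressing human Npr1 and cGMP GloSensor pGS-40F, loaded 2 h with 2% GloSensor reagent, given compound 30 min at room temperature. Luminescence read before and 20 min after 0.1 nM hNppA.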
Numbers without * were called inactive; [ ] = remark or other dose. % is set by controls: 0 for no effect and ±100 for the full control effect; potency is the fitted concentration of half-maximal effect. This is a subset. The share of hits here may be higher or lower than overall.

What do the screens show for `O=C(CCn1ccn2nc3c(c2c1=O)CCCC3)Nc1cccc(C(F)(F)F)c1`?
NPR1 antag: 1%

How did COCCC(=O)N[C@H]1CC[C@]2(C)CCC([C@H](C)C(=O)N(C)Cc3ccccc3)[C@H](O)[C@H]2[C@@H]1C (stereo partly specified) do in these assays?
NPR1 antag: 2%

What do the screens show for `CCS(=O)(=O)N1CCC(N2CCCC(C(=O)NCCc3ccccc3)C2)CC1` (stereo unspecified)?
NPR1 antag: 0%

How did COCCN1C(=O)[C@@H]2C[C@@H](CN2Cc2ccccn2)Oc2ccccc21 do in these assays?
NPR1 antag: -28%[70.6 µM]

How did O=C(CN1C(=O)C(c2ccccc2)=NC12CCCC2)N1CCc2ccccc21 do in these assays?
NPR1 antag: -23%

How did O=S(=O)(c1ccccc1)N1CC[C@@H]2COCCN(Cc3cccnc3)[C@@H]2C1 do in these assays?
NPR1 antag: -18%

Results for COCCn1c(=O)c2c(n1Cc1ccccc1)CN(C(=O)c1nc3ccccc3[nH]1)CC2 ?
NPR1 antag: -6%[70.6 µM]

Results for CCCS(=O)(=O)N1CC(c2nc(CCOc3cccc(C)c3)no2)C1 ?
NPR1 antag: -6%

What do the screens show for `COc1ccc(O)cc1CN1CCC(Cc2ccc(C(=O)O)cc2)C1` (stereo unspecified)?
NPR1 antag: 9%

How did Fc1cc(F)cc(Cc2nc3nccc(-c4ccco4)n3n2)c1 do in these assays?
NPR1 antag: 0%

By substructure: the compounds so far containing four or more nitrogen atoms.
What do the screens show for `O=C(CCn1ccn2nc3c(c2c1=O)CCCC3)Nc1cccc(C(F)(F)F)c1`?
NPR1 antag: 1%

Results for COCCn1c(=O)c2c(n1Cc1ccccc1)CN(C(=O)c1nc3ccccc3[nH]1)CC2 ?
NPR1 antag: -6%[70.6 µM]

How did Fc1cc(F)cc(Cc2nc3nccc(-c4ccco4)n3n2)c1 do in these assays?
NPR1 antag: 0%

Next part:
Results for COCCNC(=O)[C@@H]1C[C@H](Oc2cccnc2)CN1C(=O)CCc1ccccc1 ?
NPR1 antag: 4%

Results for COc1ccc(CNC(=O)Cn2c(-c3ccc(Cl)cc3)nc(C)c(CCO)c2=O)cc1 ?
NPR1 antag: -2%

Results for CCOC(=O)N1CCC(N[C@@H]2CC[C@@H]2NC(=O)c2nc(C)oc2C)CC1 ?
NPR1 antag: 4%

What do the screens show for `CC(C)c1ccc(NC(=O)N[C@H]2CO[C@H]3[C@@H]2OC[C@H]3OC(=O)Nc2ccc(Oc3ccccc3)cc2)cc1`?
NPR1 antag: inconclusive

How did CCNC(=O)C1C(c2cccc(NC(=O)c3ccccc3)c2)OC(=O)N1Cc1ccccc1 (stereo unspecified) do in these assays?
NPR1 antag: 4%

What do the screens show for `COCCN1CCCCCC(O)c2cc(C(=O)NCC(C)C)ccc21` (stereo unspecified)?
NPR1 antag: 3%

How did CCOC(=O)C1CCN(C(=O)Cc2cccn2-c2ccc(F)cc2)CC1 do in these assays?
NPR1 antag: -18%

How did O=C(CN1C(=O)C(c2ccccc2)=NC12CCCC2)Nc1ccc2c(c1)OCO2 do in these assays?
NPR1 antag: -6%

How did O=C(CN1C[C@@H](C(=O)O)[C@H](c2ccccc2)C1)NCc1ccc(C(=O)O)o1 do in these assays?
NPR1 antag: 7%

What do the screens show for `O=C(c1ccncc1)N1C[C@@H]2OCC(=O)N(Cc3ccc(F)cc3)[C@@H]2C1`?
NPR1 antag: -1%[70.6 µM]

Results for Cc1ccc(CN2CCC3(CC2)CN[S+](=O)([O-])c2ccccc2N3)cc1 ?
NPR1 antag: 8%

Results for CCC[C@H]1C[C@H]1C(=O)NCc1cc2c(nc1OC)CN(C1CCCC1)C2=O ?
NPR1 antag: 3%

How did Cn1cnc(C(=O)NC2CCN(C(=O)N3CC4CC(C3)[C@H]3CCCC(=O)N3C4)CC2)c1 (stereo partly specified) do in these assays?
NPR1 antag: -4%

How did CN(CC1CCOC1)C(=O)c1cccc(Cl)c1 (stereo unspecified) do in these assays?
NPR1 antag: 0%

How did Cn1nc2n(c1=O)CCN(C(=O)C1CC=CCC1)CC2 (stereo unspecified) do in these assays?
NPR1 antag: 2%

What do the screens show for `O=C(c1ccc(F)cc1)N1CCc2nc(-c3ccc(Cl)cc3)nc(-c3ccccc3)c2C1`?
NPR1 antag: -1%

Results for O=C(c1cccc(Br)c1)N1CCC2(CC1)CC(O)CCO2 (stereo unspecified) ?
NPR1 antag: 13%

How did CCc1c(C(=O)N2CCC3(CC2)c2ccccc2CC3O)csc1C (stereo unspecified) do in these assays?
NPR1 antag: 1%

How did O=C(CN1CCCCCC1)NCC12CCCC=C1NC(=O)CC2 (stereo unspecified) do in these assays?
NPR1 antag: 5%

Results for NC(=O)C1(C(=O)N2CCC3(CCCN(CCCc4ccccc4)C3=O)C2)CC1 (stereo unspecified) ?
NPR1 antag: 0%

How did Cc1nn(C)c(C)c1CCNC(=O)C1CCN(C(=O)N2CC3CC(C2)[C@H]2CCCC(=O)N2C3)CC1 (stereo partly specified) do in these assays?
NPR1 antag: -4%

What do the screens show for `CC(=O)N[C@@H]1CN(Cc2cccn2C)C[C@H]1CO`?
NPR1 antag: 10%

Results for CN1C[C@H](NC(=O)c2cnccn2)CCC[C@@H](C(=O)N(C)Cc2cccnc2)CC1=O ?
NPR1 antag: 2%[70.6 µM]

How did O=C1C[C@H]2CC[C@@H](CN1)N2C(=O)c1csc2nc(-c3ccccc3Cl)cn12 do in these assays?
NPR1 antag: 0%

How did CCC[C@H](N)C(=O)N1CCC2(CCC(=O)N(Cc3cnc(C)cn3)C2)CC1 do in these assays?
NPR1 antag: 1%

What do the screens show for `COc1ccc(C)cc1NC(=O)CC1CCCN(c2cnn(C)c(=O)c2)C1` (stereo unspecified)?
NPR1 antag: 0%

Results for COc1ccc(F)cc1S(=O)(=O)N1C[C@@H](C(N)=O)[C@H](C2CCN(C)CC2)C1 ?
NPR1 antag: 5%

What do the screens show for `COc1ccc(C(=O)N2CCC(CC(=O)NC3CC3)C2)cc1` (stereo unspecified)?
NPR1 antag: 9%

How did CC(=O)N1CCc2nn(CC(=O)Nc3ccc(F)cc3C)c(=O)cc2C1 do in these assays?
NPR1 antag: 0%

What do the screens show for `CN(C(=O)Cc1c[nH]c2ccccc12)C1CCc2nn(C)c(=O)n2CC1` (stereo unspecified)?
NPR1 antag: 7%

Results for COc1ccc(C[C@H](NC(=O)C2=C[C@@H](NC(=O)Nc3ccc(F)cc3F)[C@@H](O)[C@H](O)C2)C(N)=O)cc1 ?
NPR1 antag: 2%

Results for CC(C)NC(=O)NC[C@H]1OC[C@@H](NCc2ccccc2O)[C@@H]1O ?
NPR1 antag: -4%[70.6 µM]

How did O=C(NC1CCCc2c1[nH]c1c(Cl)cccc21)C1(c2ccccc2)CCOCC1 (stereo unspecified) do in these assays?
NPR1 antag: 1%

What do the screens show for `O=C1c2c(nc(CN3CCC(F)(F)CC3)n2Cc2ccccc2)NCCN1CCOc1ccccc1`?
NPR1 antag: -8%

How did CNC(=O)[C@@H](CC(C)C)N1CCC[C@H]1C(=O)N1CCN(C(C)=O)CC1 do in these assays?
NPR1 antag: 8%[70.6 µM]

What do the screens show for `CC1(c2ccccc2)N(Cc2ccccc2)C(=O)OC12CCN(Cc1ccc(C#N)cc1)CC2` (stereo unspecified)?
NPR1 antag: 2%

What do the screens show for `CSc1cccc(NC(=O)N[C@H]2CO[C@H]3[C@@H]2OC[C@H]3O)c1`?
NPR1 antag: 1%[70.6 µM]

How did CCOc1ccc(NC(=O)Cn2nc3c(cc2=O)CN(C(C)=O)CC3)cc1 do in these assays?
NPR1 antag: 4%

What do the screens show for `CN1CCCC(CN(CCc2ccccc2)C(=O)c2cc[n+]([O-])cc2)C1` (stereo unspecified)?
NPR1 antag: 13%

How did O=C(c1ccc(Cl)nc1)N1CCC2(CC1)C(=O)NCN2Cc1ccc(Cl)cc1 do in these assays?
NPR1 antag: inconclusive

What do the screens show for `O=C(NCCc1ccccc1)c1noc(-c2ccc3c(c2)OCO3)n1`?
NPR1 antag: 2%

Results for C[C@@H](NS(=O)(=O)c1ccc(Cl)cc1)c1onc(-c2cccnc2)c1C(=O)O ?
NPR1 antag: 0%[70.6 µM]

Results for CC(C)CCN1CCC(N2CCN(S(=O)(=O)c3ccc(F)c(Cl)c3)CC2)C1=O (stereo unspecified) ?
NPR1 antag: -13%

Results for COc1ccc2[nH]c(C(=O)N[C@H]3COC[C@H]3Cc3cc(C)no3)c(C)c2c1 ?
NPR1 antag: 1%

What do the screens show for `O=C(Cc1cccc(F)c1)N1CCC(Cc2nncn2-c2ccccc2)CC1`?
NPR1 antag: -1%

Results for O=C1N[C@@H]2CCN(C(=O)c3ccc4ccccc4c3)[C@@H]2C(=O)N1c1ccc(F)cc1 ?
NPR1 antag: -4%[70.6 µM]

How did FC(F)(F)c1cccc(CN2CCOC[C@H](Oc3ccccc3)C2)c1 do in these assays?
NPR1 antag: 2%[70.6 µM]

How did O=C(C1CCCCC(=O)N1Cc1ccccc1)N1CCc2ccccc2C1 (stereo unspecified) do in these assays?
NPR1 antag: -10%

How did CCC1(O)CCC12CCN(C(=O)c1ccsc1)CC2 (stereo unspecified) do in these assays?
NPR1 antag: -1%

What do the screens show for `Clc1ccc(C2Cn3nnc(-c4nc(C5CCCCC5)no4)c3CO2)cc1` (stereo unspecified)?
NPR1 antag: inconclusive

Results for COCc1nncn1C1CCN(S(=O)(=O)c2ccccc2)CC1 ?
NPR1 antag: 3%

How did Cc1c(C(C)NC(=O)Cn2ccc(=O)[nH]c2=O)cnn1-c1ccc(F)cc1F (stereo unspecified) do in these assays?
NPR1 antag: -1%

What do the screens show for `CCC(CC)C(=O)N1CC[C@@H]2COCCN(Cc3cccnc3)[C@@H]2C1`?
NPR1 antag: -3%

Results for CC(C)NC(=O)NC[C@H]1OC[C@@H](NCc2cnc[nH]2)[C@@H]1O ?
NPR1 antag: -1%[70.6 µM]

How did CCOc1ccc(CCNC(=O)Cn2cccc2-c2nc(-c3ccccc3)no2)cc1OCC do in these assays?
NPR1 antag: 5%

What do the screens show for `Cc1cc(C2CCC2)nc(N2CCN(C)C3(CCNC(=O)CC3)C2)n1` (stereo unspecified)?
NPR1 antag: 2%

Results for CCOC(=O)c1cccc(NC(=O)N[C@H]2CO[C@H]3[C@@H]2OC[C@H]3OC(=O)Nc2ccccc2)c1 ?
NPR1 antag: -28%

How did COc1ccccc1C(=O)N1CCn2c(nnc2-c2ccccc2)C1 do in these assays?
NPR1 antag: 8%[70.6 µM]

What do the screens show for `COc1ccc(-c2ccccc2)cc1N1C(=O)[C@@H]2C[C@H]1CN2C(=O)[C@H]1CCCO1`?
NPR1 antag: 4%

Results for COCCOCC1(CNC(=O)Nc2cccnc2)C[C@@H](O)[C@@H](O)C1 (stereo partly specified) ?
NPR1 antag: -1%[70.6 µM]

What do the screens show for `CC(C)Oc1ccc(C(=O)N2CC(c3nnc(C(C)C)o3)C3(CCOCC3)C2)cc1` (stereo unspecified)?
NPR1 antag: 2%

What do the screens show for `COc1ccc(CC(=O)N2CC3CC(C2)[C@H]2CCCC(=O)N2C3)cc1` (stereo partly specified)?
NPR1 antag: 7%

What do the screens show for `CCn1nccc1C(=O)N1C[C@@H](Oc2cccnc2)C[C@H]1C(=O)NCCOC`?
NPR1 antag: -1%

What do the screens show for `CC(C)CN(Cc1cnn(C)c1)C(=O)C1CCN(C(=O)C2CCC2)CC1`?
NPR1 antag: 2%

What do the screens show for `COCCN[C@H]1[C@@H]2OC[C@@H](O2)[C@@H](NCc2ccc(F)cc2)[C@@H]1O`?
NPR1 antag: -1%[70.6 µM]

What do the screens show for `Cc1nc(-c2ccc(Cl)cc2)n(Cc2ccccc2F)c(=O)c1CCO`?
NPR1 antag: 3%

Results for O=C(c1ccccc1OCC1CCCN(Cc2cccnc2)C1)N1CCCCC1 (stereo unspecified) ?
NPR1 antag: -4%

How did CCCc1nc(CC)n2cc[nH]c(=O)c12 do in these assays?
NPR1 antag: -3%

How did CCn1cc(-c2ccc(Cl)cc2)cc1C(=O)NCC1CCCO1 (stereo unspecified) do in these assays?
NPR1 antag: -3%

Fetched one by one from above, 4 records:
What do the screens show for `CCn1nccc1C(=O)N1C[C@@H](Oc2cccnc2)C[C@H]1C(=O)NCCOC`?
NPR1 antag: -1%

What do the screens show for `CC(C)Oc1ccc(C(=O)N2CC(c3nnc(C(C)C)o3)C3(CCOCC3)C2)cc1` (stereo unspecified)?
NPR1 antag: 2%

How did CCn1cc(-c2ccc(Cl)cc2)cc1C(=O)NCC1CCCO1 (stereo unspecified) do in these assays?
NPR1 antag: -3%

What do the screens show for `COCCN[C@H]1[C@@H]2OC[C@@H](O2)[C@@H](NCc2ccc(F)cc2)[C@@H]1O`?
NPR1 antag: -1%[70.6 µM]
